RecA splice inh: inhibitors of M. tuberculosis RecA intein splicing | P9WHJ3 | cell-free RecA intein splicing, fluorescence | inhibition, %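 (about 9 µM by stock and volumes)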 | 290,000 compounds, 0.75% hits | AID 2221; in the data active = inhibition above about 30%; inconclusive = no clear call, values can overlap the other calls;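 also: 0% = vehicle wells and 100% = reference inhibitor control wells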
Target sequence (P9WHJ3 whole entry, looked up, canonical isoform): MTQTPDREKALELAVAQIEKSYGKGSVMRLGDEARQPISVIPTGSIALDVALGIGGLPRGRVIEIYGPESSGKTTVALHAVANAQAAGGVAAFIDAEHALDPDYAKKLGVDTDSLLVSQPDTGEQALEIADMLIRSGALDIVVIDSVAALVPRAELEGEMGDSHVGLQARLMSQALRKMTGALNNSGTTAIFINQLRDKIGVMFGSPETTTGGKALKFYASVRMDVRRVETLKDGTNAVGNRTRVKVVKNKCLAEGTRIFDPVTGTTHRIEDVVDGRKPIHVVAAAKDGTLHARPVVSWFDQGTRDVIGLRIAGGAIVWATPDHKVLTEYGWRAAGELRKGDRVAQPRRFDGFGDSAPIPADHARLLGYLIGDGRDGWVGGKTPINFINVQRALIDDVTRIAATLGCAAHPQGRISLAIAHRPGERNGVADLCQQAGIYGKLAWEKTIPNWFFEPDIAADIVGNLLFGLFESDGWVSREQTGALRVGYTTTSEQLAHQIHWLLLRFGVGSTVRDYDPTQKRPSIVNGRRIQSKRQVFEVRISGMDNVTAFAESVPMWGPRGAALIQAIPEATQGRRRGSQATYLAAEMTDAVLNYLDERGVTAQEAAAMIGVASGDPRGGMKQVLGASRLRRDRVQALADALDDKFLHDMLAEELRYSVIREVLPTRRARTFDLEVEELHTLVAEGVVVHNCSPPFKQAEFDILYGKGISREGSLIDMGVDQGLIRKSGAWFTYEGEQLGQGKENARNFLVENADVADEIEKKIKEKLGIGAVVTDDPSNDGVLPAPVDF
Mtb betalactam: beta-lactam sensitization of Mtb H37Rv | AID 434955 | 330,000 compounds, 0.27% hits | inhibition, % at 25 µM | M. tuberculosis H37Rv growth with meropenem, percent inhibition; hits of this screen are not shown here;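 active = about 74% or more and at least 40 points above the plate without the antibiotic, then above 30% in a dose series; inconclusive = first-round hits that could not be retested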;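 also: growth measured after seven days incubation then overnight dye step; 0% = bacteria only wells and 100% = bacteria with antibiotic; twin plates without the antibiotic show which effects depend on it; some results filed as inactive read as strong as hits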
YopH inh: YopH (Yersinia) phosphatase inhibition; 140,000 compounds, 0.16% hits; fluorescence Ex485/Em525; AID 898; inhibition, %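 (about 10 µM by stock and volumes)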;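 active = inhibition of 50% or more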;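 also: controls were vehicle for no effect and minimum signal wells for full effect; inactives centre near -20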
Arbovirus inh: arbovirus infection inhibition; arbovirus infection cell-based antiviral screen; AID 1251; 200,000 compounds, 0.37% hits; inhibition, % at 10 µM;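 active = inhibition from about 30%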;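 also: bluetongue infection of BSR cells; cell survival read as ATP light after 72 h; 0% = infected wells without compound and 100% = uninfected wells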
Mtb growth: M. tuberculosis H37Rv growth inhibitors, H37Rv strain (AID 1626). M. tuberculosis H37Rv growth inhibition; higher % means a stronger effect. one-dose inhibition, % at 10 µM; IC50 in µM for titrated hits. 220,000 compounds, 0.95% hits;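 active = confirmed in a dose series; inconclusive = inhibition above 80% but not taken into the dose series; inactive = below 80% or under 30% at every dose of the series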;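 also: bacteria incubated seven days before Alamar blue readout; 0% = bacteria only wells and 100% = bacteria with antibiotic wells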
Arbovirus inh repeat: recorded beside Arbovirus inh, whose call it bears; inhibition, %; measured here: 10K subset replicate screen; many hits read low in the repeat;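 first of two repeat runs on a subset; 0% = infected and 100% = uninfected wells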
Numbers without * were called inactive; ? = inconclusive; nt = no result given; & = joins results of further samples. These rows are one share of the data; count on the stated rates, not on these rows.

Start of the listing, in advance, 4 compounds:
SMILES	RecA splice inh	Mtb betalactam	YopH inh	Arbovirus inh	Mtb growth	others
COc1ccc(/C(N)=N/OC(=O)c2cccc([N+](=O)[O-])c2C)cc1	1.7	-6	nt	4	-5%
Cc1ccc(N(CN2C(=O)c3ccccc3C2=O)C(=O)c2ccc([N+](=O)[O-])cc2[N+](=O)[O-])cc1	nt	5	-3	7	5%
CSc1cccc(CNC(=O)C2CCC(=O)N(CCCN3CCCC3=O)C2)c1 (centres undefined)	0.9	-1	nt	nt	nt
CC(C)C[C@H](NC(=O)c1[nH]cnc1C(=O)N[C@@H](C)c1ccccc1)C(=O)OC(C)(C)C	5.0	-1	nt	-21	6%

The whole of this part, repeating the preview:
SMILES	RecA splice inh	Mtb betalactam	YopH inh	Arbovirus inh	Mtb growth	others
COc1ccc(/C(N)=N/OC(=O)c2cccc([N+](=O)[O-])c2C)cc1	1.7	-6	nt	4	-5%
Cc1ccc(N(CN2C(=O)c3ccccc3C2=O)C(=O)c2ccc([N+](=O)[O-])cc2[N+](=O)[O-])cc1	nt	5	-3	7	5%
CSc1cccc(CNC(=O)C2CCC(=O)N(CCCN3CCCC3=O)C2)c1 (centres undefined)	0.9	-1	nt	nt	nt
CC(C)C[C@H](NC(=O)c1[nH]cnc1C(=O)N[C@@H](C)c1ccccc1)C(=O)OC(C)(C)C	5.0	-1	nt	-21	6%
O=C(N/N=C/c1cccs1)c1ccc2ccccc2c1	-0.9	86	nt	nt	nt
CC(=O)c1nn(-c2ccc(Br)cc2)cc1C(=O)c1ccco1	1.5	5	4	-2	6%
CCc1c(C(=O)Nc2ccc(C)c(C)c2)[nH]c(C)c1C(C)=O	1.9	0	nt	nt	nt
CSc1nnc(NC(=O)C2CCCCC2)s1	nt	-2	-18	15	1%	Arbovirus inh repeat=7
CC(OC(=O)c1ccc(S(=O)(=O)NCc2ccco2)cc1)C(=O)Nc1ccc(Cl)cn1 (centres undefined)	2.1	10	-24	-3	4%
Cn1nc(CC(=O)Nc2ccc3c(c2)CCC3)c2ccccc2c1=O	-2.6	nt	-19	3	-1%
CCN(Cc1ccccc1)C(=O)CN1C(=O)COc2ccc(S(=O)(=O)N3CCCCCC3)cc21	-0.4	2	nt	nt	nt
O=c1ccc(-c2ccc(S(=O)(=O)Nc3ccccc3Cl)o2)n[nH]1	-3.3	-1	nt	nt	nt
COc1ccc(-c2n[nH]c(=S)n2Cc2ccccc2)cc1OC	-1.7	5	nt	nt	nt
C[N+](C)(C)CCCC(=O)c1ccc2c(c1)OCO2	-2.9	-11	-2	7	-1%
CSc1nc(C)c(Cl)c(C)c1C#N	0.3	-4	-23	7	-1%
CSc1ccc(CCNS(=O)(=O)c2ccc3c(c2)C(C)(C)C(=O)N3C)cc1	-0.9	20	nt	nt	nt
CCCOc1cccc(C(=O)N(Cc2ccccc2)C2CCS(=O)(=O)C2)c1 (centres undefined)	0.3	6	nt	nt	nt
CN(Cc1ccccc1)C(=O)c1cn(C)c2ccc(S(=O)(=O)N3CCCC3)cc2c1=O	-2.0	-4	nt	nt	nt
Cc1cc(C)cc(OCC(=O)OCC(=O)Nc2ccc(Cl)cn2)c1	-0.2	5	2	-3	-12%
O=C(O)c1cccc(NC(=S)NC(NC(=O)c2ccccc2[N+](=O)[O-])C(Cl)(Cl)Cl)c1 (centres undefined)	6.5	-5	nt	10	5%
O=C(OC(C(=O)NC1CCCC1)c1ccncc1)C1=Cc2ccccc2OC1 (centres undefined)	nt	-7	-6	6	-4%
COc1ccc(NC(=O)O/N=C/c2ccc(N(C)C)cc2)cc1	2.2	30	nt	nt	nt
O=C(NCCCn1ccnc1)c1cc(C2CC2)on1	-1.8	6	-13	-3	-1%	Arbovirus inh repeat=3
Cc1ncoc1C(=O)N1CCCC(N2CCN(c3cccc(C(F)(F)F)c3)CC2)C1 (centres undefined)	0.6	-3	nt	nt	nt
CCCC(=O)Oc1cccc(C2NC(=O)c3ccccc3O2)c1 (centres undefined)	5.1	-2	nt	nt	nt
COC(=O)[C@H](C)NC(=O)NCCC1=CCCCC1	0.1	2	nt	nt	-7%
CCCCCC(C)NC(=O)CN1C(=O)NC(C)(c2ccc3ccccc3c2)C1=O (centres undefined)	0.2	7	nt	nt	nt
O=C(NCC(c1cccnc1)N1CCOCC1)c1cccs1 (centres undefined)	0.1	-8	-29	11	-8%
COc1cc(C(F)(F)F)nc2c(Br)c(C(C)(C)C)nn12	0.5	2	nt	nt	2%
CC(NC(=O)NC12CC3CC(CC(C3)C1)C2)c1ccc2c(c1)OCO2 (centres undefined)	nt	1	nt	-5	10%
Cc1ccc(S(=O)(=O)NC(=O)N2CCCN(Cc3ccc(F)cc3)CC2)cc1	0.3	-4	nt	nt	3%
CCN(Cc1ccccc1)Cc1ccc(OCc2ccccc2)c(OC)c1	0.8	4	nt	nt	nt
CCn1c(C)c(C(C)=O)c(SC)nc1=S	7.6	59	2	8	6%
Cc1cc(Cl)ccc1NC(=O)COC(=O)c1nc2nccc(C)n2n1	1.1	1	nt	0	-7%
CCN(CC)S(=O)(=O)c1ccc(C)c(NC(=O)COc2ccc3c(C)cc(=O)oc3c2)c1	-3.5	-6	-20	-6	-4%
COc1ccccc1N1CCN(Cc2nc3ccsc3c(=O)[nH]2)CC1	0.7	-21	-46	9	2%
CCOc1ccc(NC(=O)CN(C)C(=O)CCNC(=O)c2ccccc2Cl)cc1OCC	0.2	-8	nt	nt	nt
CC(C)CCNC(=O)CCn1nc(-c2ccccc2)ccc1=O	1.3	-1	-29	-9	nt
COc1cc(OC)c(NC(=O)CCNC(=O)Cn2ccc3ccccc3c2=O)cc1Cl	4.6	-7	-21	1	-3%
COc1cccc(-n2c(SCC(=O)Nc3cc(C)on3)nc3ccccc3c2=O)c1	-2.8	-4	-17	16	-1%
CCCCCCCC(=O)N/N=C/c1cccnc1	0.8	59	-27	5	5%
Cc1ccc(NC(=O)C2CCCN2C(=O)Oc2ccccc2)cc1 (centres undefined)	1.1	-17	-2	13	-2%
CC(=O)N1CCOc2ccc(S(=O)(=O)Nc3cccc(C)c3)cc21	-0.1	2	nt	nt	nt
CC(C)(C)n1cnc2cc(NCc3ccc(Br)cc3)ccc21	3.3	98	nt	nt	nt
CCc1ccc(NC(=O)CSc2nc(=O)n(CCCN3CCOCC3)c3c2CCCC3)cc1	1.7	-6	nt	nt	nt
CCOC(=O)c1c(-c2ccccc2)csc1N1C(=O)Nc2ccccc2N1O	-2.1	-9	nt	21	5%
Cc1cccc(NS(=O)(=O)c2cc(C(=O)N3CCCC3)ccc2Cl)c1	2.2	2	-10	2	4%
O=C(CN1CCc2ccccc2C1)Nc1ccccc1Cl	6.0	5	nt	nt	nt
CN1C/C(=C/c2cccnc2)C(=O)/C(=C/c2cccnc2)C1	nt	100	-6	-1	6%
COc1ccc(C(=O)/C=C/c2cc(OC)c(O)c(OC)c2)c(F)c1	-4.8	94	2	-31	21%

Next section.
SMILES	RecA splice inh	Mtb betalactam	YopH inh	Arbovirus inh	Mtb growth	others
O=C(Nc1ccnn1C1CCN(C(=O)c2ccc(C(F)(F)F)cc2)CC1)C1CC1	-2.1	-2	nt	nt	nt
COc1cccc(N2CCN(c3ccc([N+](=O)[O-])cn3)CC2)c1	1.7	-2	nt	nt	nt
COc1cccc(NC(=O)C(C)C)c1	-1.6	3	nt	nt	nt
CC(NC(=S)N1CCN(c2ccccc2)CC1)c1ccccc1 (centres undefined)	5.7	6	nt	nt	8%
CC1CCC(NCCc2ccc3c(c2)OCO3)CC1 (centres undefined)	0.7	12	-38	-5	-4%
CCN1CCCC1CNC(=O)c1cc(S(=O)(=O)CC)c(N)cc1OC (centres undefined)	-0.8	-4	nt	1&1	-15%&-7%&1%
CC(C)(C)c1ccc(/C=N/NC(=O)C(=O)NCCCN2CCOCC2)cc1	-2.1	3	6	4	-3%
Cc1ccc(-c2sc(-c3cccnc3)nc2CC(=O)O)cc1	2.4	2	nt	3	1%
CCCCN(C(=O)CSCc1ccc(C)cc1)c1c(N)n(CCC)c(=O)[nH]c1=O	1.5	-17	nt	nt	nt
CC(C)CNC(=O)Nc1ccc(F)c(Cl)c1	-9.8	1	nt	6	1%
COc1ccc(C(C(=O)NC2CCCC2)N(C(=O)c2ccoc2C)c2cc(C)cc(C)c2)cc1 (centres undefined)	1.9	5	-58	-11	-6%
COc1ccc(-c2csc3ncnc(N4CCN(S(=O)(=O)c5ccc(Cl)s5)CC4)c23)cc1	13	-7	nt	nt	nt
COc1cc(OC)c(NC(=O)Nc2ccc(OC)c(OC)c2)cc1Cl	-0.2	-3	-33	6	-1%
Cc1cc2nc3n(c2cc1C)CC1CC(C(=O)NCCc2cccs2)N(C)C31 (centres undefined)	-1.6	-6	nt	nt	0%
O=C(COc1ccc(Cl)cc1Cl)Nc1ccc(CN2CCOCC2)cc1	-0.2	3	nt	nt	nt
O=C(/C=C/c1ccco1)Oc1cccc2cccnc12	-10	100	nt	nt	?
CCOC(=O)c1sc(NC(=O)Nc2ccccc2F)nc1C	-4.0	-1	-3	6	-2%
COc1ccc(-c2noc(COc3ccc4ccccc4c3Br)n2)cc1OC	3.4	1	-30	9	-7%
CCN(CC)S(=O)(=O)c1ccc(N2CCOCC2)c(NS(=O)(=O)c2ccc(C(C)C)cc2)c1	-0.9	-1	-9	9	-3%
COc1ccc(NC(=O)CSc2nnc(Cn3c(=O)sc4ccccc43)n2C)c(OC)c1	-0.4	?	-35	11	nt	Arbovirus inh repeat=-2
CC(C)OCCCNC(=O)c1ccc(NC(=O)C2CCCO2)cc1 (centres undefined)	-1.1	0	-23	3	-4%	Arbovirus inh repeat=1
Cc1nc2ccccn2c1C(=O)NC1CCCCC1	1.7	-4	-28	1	-1%	Arbovirus inh repeat=-1
COC(=O)Cc1cc(=O)n2[nH]c(C)c(-c3ccccc3)c2n1	-1.6	-15	-39	4	-1%
CCCCNC(=O)CSc1nc2cc3c(cc2c(=O)n1CCCC(=O)NCCc1ccc(OC)c(OC)c1)OCO3	1.3	-2	nt	1	3%
O=C(c1cccc([N+](=O)[O-])c1)N(c1ccccn1)c1ccccn1	-0.2	3	-13	8	-3%
CCN1/C(=C\c2ccc3ccccc3[n+]2CC)Sc2cc(C)ccc21	5.1	100	nt	-35	?
Cc1ccc(C(O)Cn2cc([N+](=O)[O-])nc2C)cc1 (centres undefined)	-2.3	-2	nt	nt	-4%
COc1ccc(-c2ocnc2C(=O)N2CCN(C(c3ccccc3)c3ccccc3)CC2)cc1	21	-9	nt	-10	-4%
O=C(Cn1cnc([N+](=O)[O-])n1)N/N=C/c1cccc2ccccc12	1.4	24	-27	-4	?
Cc1ccc(Oc2cc(NN3CCCCC3)c([N+](=O)[O-])cc2[N+](=O)[O-])c([N+](=O)[O-])c1	2.6	-4	nt	nt	nt
COc1ccc(-c2cccc(NS(=O)(=O)c3cc([N+](=O)[O-])ccc3C)c2)nn1	1.0	-13	nt	nt	nt
Cc1[nH]n2c(=O)cc(C(C)(C)C)nc2c1-c1ccccc1	1.8	98	-32	-24	0.41µM*
CCCCNC(=O)c1ccc(NS(=O)(=O)c2ccc3[nH]c(=O)[nH]c3c2)cc1	0.2	-6	nt	nt	nt
COc1cc(CN2CCN(S(=O)(=O)c3ccc(NC(C)=O)cc3)CC2)cc(OC)c1O	-7.6	-2	-19	7	-2%
CC1CCCC(NC(=O)COC(=O)c2ccccc2Sc2ccccc2C#N)C1C (centres undefined)	-0.4	-1	-42	-4	3%
COc1ccc(CNC(=O)c2noc(C)c2[N+](=O)[O-])cc1	-0.6	10	nt	12	13%
CCC(C)(C)NC(=O)C(c1cccn1C)N(C(=O)Cn1nnc2ccccc21)c1ccc(OC)cc1 (centres undefined)	0.5	-14	-49	7	-7%
CCCN1Cc2cccc(C(=O)N3CCN(c4ccc(F)cc4)CC3)c2C1=O	3.6	5	-15	5	1%
COc1ccccc1N1C(=O)[C@@H]2[C@H](C1=O)[C@H](C(=O)c1ccc(OC(C)=O)cc1)N1N=CC=C[C@@H]21	7.3	-2	nt	nt	4%
O=C(NCCCN1CCCC1)c1ccc2c(Cl)c3c(nc2c1)CCCC3	3.7	-1	nt	-2	-2%
CC(C)C(NS(=O)(=O)c1cccc2nsnc12)C(=O)NCc1ccc2c(c1)OCO2 (centres undefined)	0.0	1	-19	1	-3%
Cc1cc(F)ccc1NCc1ccncc1	-3.0	2	-34	1	-16%
CC(C)C[C@H](NC(=O)N1CCn2c1nc1ccccc12)C(=O)NC1CCCCC1	0.0	2	nt	nt	nt
Cc1ccc(F)cc1NC(=O)c1cccc(N(C)C)c1	-0.9	-17	-33	-1	-8%
NC(=O)C1CCN(Cc2nc3cc(Cl)ccc3c(=O)[nH]2)CC1	-4.2	-18	-4	12	-11%
CCOC(=O)C1(CC2CC2)CCN(C(=O)c2cc(OC)nc3ccccc23)CC1	nt	3	nt	6	3%

Screens (PubChem)
